VACV E9 pol inh: vaccinia E9 polymerase processive synthesis inhibition; in vitro processive DNA synthesis, absorbance read-out; stronger effect = lower value; some inactives read as strong as hits; normalized absorbance, % (concentration not given with the values); 0.94% of 46,000 active;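 active = replicate mean up to 90% and picked by the depositor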;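 also: 100% = median of the test wells of a plate; 100 nL library stock went into each well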
An asterisk follows results filed as active.

Structure	VACV E9 pol inh
Cc1ccc(Sc2cn[nH]c2C)cc1	72.9*
S=C(c1ccccc1)N1CCOCC1	100.2
CCOc1ccc(N)cc1OCC	101.1
CC(=O)Nc1ccccc1OC(=O)c1sc2ccccc2c1Cl	104.3
O=C(NC1CCCC1)c1cccc(S(=O)(=O)N2CCCC2)c1	102.4
N#CC(C#N)=C(C#N)c1ccc(N(c2ccccc2)c2ccccc2)cc1	92.2
O=C(Oc1ccc2c(=O)c(-c3ccccc3)coc2c1)N1CCOCC1	101.6
Nc1ccc2nc(SCC(=O)c3ccc(F)cc3)sc2c1	100.1

Next compounds
Structure	VACV E9 pol inh
CCc1ccc(C(=O)CSc2cccc[n+]2[O-])cc1	103.9
S=c1[nH]nc(-c2cccnc2)n1C1CCCCC1	99.9
O=C(CC(C(=O)O)c1cccc(Cl)c1)c1ccccc1 (centres undefined)	84.8
CC(=O)N1CCOc2cc(S(=O)(=O)N(C)Cc3ccccc3)ccc21	104.4
COc1cccc(-n2c(C)nc3c(cnn3-c3ccc(Cl)cc3)c2=O)c1	103.4
O=C(NCc1ccco1)C1CCN(c2nc3ccccc3n2Cc2cccc(F)c2)CC1	99.5
CC1Cc2ccccc2N1C(=O)COc1ccc(C(=O)c2ccc(F)cc2)cc1 (centres undefined)	102.9
CCCCN1C(=O)C2ON(c3ccc(Cl)cc3)C(c3ccccc3)C2C1=O (centres undefined)	97.6

The list continues:
Structure	VACV E9 pol inh
CCOc1ccccc1C(=O)N1CC(C)N(C(=O)c2ccccc2OCC)CC1C (centres undefined)	99.8
CCc1ccc(C2C(C#N)=C(N)OC3=C2C(=O)CCC3)cc1 (centres undefined)	99.9
CC(=O)Nc1cccnc1	93.1
N#Cc1cnn2c(-c3ccc(Cl)cc3Cl)ccnc12	97.7
c1ccc(Cn2ncc3c2ncn2nc(-c4ccncc4)nc32)cc1	100.2
CC(C)CNS(=O)(=O)C1CCS(=O)(=O)C1 (centres undefined)	101.9
Cc1ccc(-n2c(C)cc(C(=O)CSc3nnc4ccccn34)c2C)cc1	94.0
C=C1Cn2c(nnc2-c2ccc(Br)cc2)S1	100.6

The list continues.
Structure	VACV E9 pol inh
FC(F)(F)Oc1ccc(OCc2n[nH]c(=S)o2)cc1	96.4
COc1cccc(NC(=O)CSc2nc(N)cc(=O)[nH]2)c1	100.2
N#Cc1cccc(C(=O)Cc2cccc(Oc3ccccc3)c2)c1	89.6
COc1cccc(NC(=O)COC(=O)C2CCCCC2)c1	90.0
COC(=O)c1sccc1NC(=S)N1CC(C)CC(C)C1 (centres undefined)	102.2
CCOC(=O)C1CCCN(C(=O)c2cc3c(C)nc4ccccc4c3o2)C1 (centres undefined)	89.8
CC1=C(C(=O)N(CC2CC=CCC2)CC2CCCO2)C2(CCCCC2)OC1=O (centres undefined)	101.9
CC(C(=O)Nc1ccccc1)C(=O)Nc1ccccc1	99.5

Following part
Structure	VACV E9 pol inh
Clc1ccc(-c2ccnc3ncnn23)cc1Cl	106.9
CC1(C)CC(=O)/C(=C/c2ccccc2)C(C)(C)N1	100.2
COC(=O)c1c(-c2c(Cl)cccc2Cl)noc1C(=O)NN	100.4
O=C(/C=C/c1ccccc1)NCCc1nc2ccccc2[nH]1	104.2
O=C(Oc1cccc(NC(=O)c2cccs2)c1)c1cccc(S(=O)(=O)N2CCOCC2)c1	100.5
C=CCn1c(=O)c2c(nc3n2CCN3c2ccc(F)cc2)n(C)c1=O	101.7
CC1(C)CC(=O)/C(=C(\O)Cc2ccccc2)C(=NCc2ccccc2)C1	93.3
CCOc1ccc(NC(=O)N2CCC(CN3CCOCC3)CC2)cc1	103.5

The list goes on:
Structure	VACV E9 pol inh
CCCCn1c(CNC(=O)COC)nc2ccccc21	99.7
CCCNC(=O)Cn1ncn2c(cc3sc(CC)cc32)c1=O	82.9
Cc1oc2ccccc2c1CCOC(=O)c1ccc(Cl)cc1	98.5
CC(C)CCNc1c2c(nc3nncn13)CCC2	93.5
O=C1CSc2ccccc2N1Cc1ccc(Cl)cc1	94.2
CSc1ncc(F)c(N(C)C)n1	100.3
COC(=O)c1nnn(CC(=O)N(Cc2ccccc2)c2ccc(Br)cc2)c1C(=O)OC	96.9
COc1cc2nc(=S)n3c(c2cc1OC)NC(CCC(=O)NCCc1ccc(Cl)cc1)C3=O (centres undefined)	93.9

Other results
Structure	VACV E9 pol inh
CCc1ccccc1NCc1c(CO)cnc(C)c1O	107.6
NS(=O)(=O)c1ccc(C23CC4CC(CC(C4)C2)C3)cc1	99.3
Cc1nn(-c2ccccc2)c2sc(C(=O)NCCN3CCOCC3)cc12	92.4
CC1(C)CC(=O)C2=C(C1)NC1=C(C(=O)CC(C)(C)C1)C2c1ccccc1C(F)(F)F	104.9
CN(C)c1ccc(C2OC(=O)C(C)(C)C(=O)C2(C)C)cc1 (centres undefined)	100.1
CC(=O)O[C@H]1[C@H](OC(C)=O)[C@H](OC(C)=O)CO[C@@H]1c1nc2ccccc2s1	102.3
Cc1cccc(NC(=O)CSc2nnnn2-c2ccccc2)c1	99.6
COC(=O)CN1C(=O)COc2cc(S(=O)(=O)N3CCCc4ccccc43)ccc21	102.7

Looked up above.
`CN(C)c1ccc(C2OC(=O)C(C)(C)C(=O)C2(C)C)cc1` (centres undefined) in VACV E9 pol inh → 100.1
`NS(=O)(=O)c1ccc(C23CC4CC(CC(C4)C2)C3)cc1` in VACV E9 pol inh → 99.3
`CCc1ccccc1NCc1c(CO)cnc(C)c1O` in VACV E9 pol inh → 107.6
`COC(=O)CN1C(=O)COc2cc(S(=O)(=O)N3CCCc4ccccc43)ccc21` in VACV E9 pol inh → 102.7
`Cc1cccc(NC(=O)CSc2nnnn2-c2ccccc2)c1` in VACV E9 pol inh → 99.6
`Cc1nn(-c2ccccc2)c2sc(C(=O)NCCN3CCOCC3)cc12` in VACV E9 pol inh → 92.4

New compounds follow
Structure	VACV E9 pol inh
CCn1cc2c(n1)-c1c(oc(C(=O)Nc3ccc(Cl)cc3)c1C)CC2	95.3
Cc1ccc(S(=O)(=O)c2c[nH]c(=O)[nH]2)cc1	100.2
CCCCC(=O)Nc1c(-c2ccc(OC)cc2)nc2ccccn12	98.8
Cc1ccc(SCC(=O)c2ccc(Cl)cc2)cc1	105.3
Cc1ccc(C(C)n2cc(C(=O)NCc3ccccn3)nn2)cc1 (centres undefined)	100.8
COC(=O)CCn1cc(F)c(N)nc1=O	97.4
CCc1ccc(C2CC(=O)NC(SCC(=O)OC)=C2C#N)cc1 (centres undefined)	96.6
O=C(O)c1ccc(Cn2c(SCc3ccccc3F)nc3ccncc32)cc1	109.1

The listing continues.
Structure	VACV E9 pol inh
COc1ccc(OC)c(S(=O)(=O)NCc2cn3ccccc3n2)c1	90.7
CC(C)(C)N1CCN(C(C)(C)C)C1=O	100.0
COC(=O)c1cn(CC(=O)N2CCCCC2C)c2ccccc12 (centres undefined)	102.0
Cc1ccc(CCNC(=O)CC(C)(C)CC2=NS(=O)(=O)c3ccccc3N2)cc1	95.0
CCc1c(C)nc(N2CCOCC2)[nH]c1=O	105.2
O=C(NCCCN1CCN(c2ccc(F)cc2)CC1)c1cccn2c(=O)c3ccccc3nc12	97.4
Cc1c(C(=O)N2CCCC2)sc(NC(=O)c2cccs2)c1C#N	96.4
O=C1CNC(=S)N1c1ccccc1	100.7

Laid out differently: entries from further up
COC(=O)c1cn(CC(=O)N2CCCCC2C)c2ccccc12 (centres undefined)
  VACV E9 pol inh: 102.0

Cc1nn(-c2ccccc2)c2sc(C(=O)NCCN3CCOCC3)cc12
  VACV E9 pol inh: 92.4

CCc1ccc(C(=O)CSc2cccc[n+]2[O-])cc1
  VACV E9 pol inh: 103.9

CCCCC(=O)Nc1c(-c2ccc(OC)cc2)nc2ccccn12
  VACV E9 pol inh: 98.8

Continuation:
Structure	VACV E9 pol inh
O=C(NCCCn1ccnc1)c1cc2ccccc2oc1=O	98.0
CC(C)C/C(=N\O)c1cn(C)c2ccccc12	99.8
CCOC(=O)c1c[nH]c2ccccc2c1=O	104.8
O=C1CC(N2CCCc3ccccc32)C(=O)N1c1ccccc1 (centres undefined)	99.0
NC(=O)c1ccsc1NC(=O)C1CC1	95.1
CCC(Sc1nc2ncccc2c(=O)n1Cc1ccccc1)C(=O)Nc1ccc(F)cc1 (centres undefined)	99.5
O=C(CN1C(=O)/C(=C\c2ccccc2)Oc2ccccc21)NCCc1ccccc1	107.0
O=C(Nc1ccccc1)Nc1ccc(C(=O)N2CCCCC2)cc1	99.7

Other results
Structure	VACV E9 pol inh
CC1(C)Cc2ccccc2CN1C(=O)c1ccccc1	99.3
COc1ccc(CCNC(=O)c2ccccc2)cc1	104.2
CC(=O)NCc1ccc2c(c1)cc(C)n2C	100.5
O=c1oc2ccccc2cc1-c1csc(-c2ccccc2)n1	100.8
O=C(c1cc(F)cc2c1OCOC2)N1CCC(O)(c2ccc(Cl)cc2)CC1	101.7
O=S(=O)(NCC1CCCO1)c1ccc(-n2cccn2)cc1 (centres undefined)	106.0
CCc1cc2c(ncn3cnnc23)s1	107.1
CCSc1nc2n(n1)C(c1cccs1)C1=C(CCCC1=O)N2 (centres undefined)	103.6

Next part.
Structure	VACV E9 pol inh
Clc1cccc(OCCN2CCN(c3ccccc3)CC2)c1	100.5
Cc1nc(-c2cccc(N)c2)cs1	99.9
Nc1c(S(=O)(=O)Cc2ccc(Cl)cc2)sc2nc3c(cc12)CCCC3	98.3
O=C1C(=O)N(CCc2c[nH]c3ccccc23)C(c2ccccn2)/C1=C(/O)c1ccccc1 (centres undefined)	97.8
CC(=O)NCCn1ccc2ccccc21	86.1
Cn1c(=O)c2cc(C(=O)N3CCCC3)sc2c2ccccc21	102.7
Cc1ccc(NC(=O)c2cnc3ccccn3c2=O)cc1	92.0
CC1CN(Cc2c(O)ccc3c(=O)c(-c4ccccc4)coc23)CC(C)O1 (centres undefined)	99.6

Additional entries
Structure	VACV E9 pol inh
CSc1ccccc1N1C(=O)C2CC=CCC2C1=O (centres undefined)	100.8
O=C(Oc1ccc(Cl)cc1)c1csc(C2COc3ccccc3O2)n1 (centres undefined)	109.9
CCOC(=O)C1CCCN(CCP(=O)(c2ccccc2)c2ccccc2)C1 (centres undefined)	100.0
COc1ccc(CCN2C(=O)C3C4C=CC(C4)C3C2=O)cc1OC (centres undefined)	109.3
Nc1ccccc1SC/C=C/c1ccccc1	106.6
CCN1C(=O)c2cccc3c(NC(=O)c4ccc(S(=O)(=O)N5CCCCC5C)cc4)ccc1c23 (centres undefined)	99.8
NC1=NC2C(N=C(Br)N2C2O[C@H]3COP(=O)(O)O[C@@H]3[C@@H]2O)C(=O)N1 (some centres undefined)	100.4
COC(C)(C)CCCC(C)C/C=C/C(C)=C/C(=O)O (centres undefined)	99.2

More results.
Structure	VACV E9 pol inh
O=C(Nc1ccccc1)OC1CN(C(c2ccccc2)c2ccccc2)C1	120.4
N#Cc1c(NC(=O)/C=C/C(=O)O)sc2c1CCC2	99.1
CC1=C(C(=O)Nc2ccc(Cl)cc2C(=O)N2CCCCCC2)SCCO1	85.8
CCCCc1c(C)c(C#N)c2nc3ccccc3n2c1NCCN1CCOCC1	99.9
Cc1ccc(Nc2nc(N3CC(C)OC(C)C3)nc3c2cnn3C)cc1Cl (centres undefined)	97.0
CC(C)(C)NC(=O)c1cccc(NC(=O)CCC(=O)O)c1	100.1
CC1CN(CC2COC(C)(C)O2)CC(C)O1 (centres undefined)	100.0
c1csc(CSc2nc3ccccc3s2)c1	99.4

Other entries
Structure	VACV E9 pol inh
Cc1ccc(-c2nn(C)c(=O)c3ccccc23)cc1S(=O)(=O)N1CCOCC1	100.5
CC(Nc1nc(N2CCOCC2)nc2ccccc12)c1ccccc1 (centres undefined)	90.1
O=C(O)Cn1nnnc1SCC(=O)Nc1ccccc1F	100.0
Cc1ccc(C)c(NC(=O)c2ccccc2)c1	85.8
Cc1ccc(N(C(=O)c2ccccc2)C2CS(=O)(=O)CC2OC(=O)c2ccccc2)cc1 (centres undefined)	99.6
CCC(CC)C(=O)NCc1ccc2[nH]c(C)cc2c1	101.0
Cc1cc(C)cc(NC(=O)C(C)Sc2ccccc2)c1 (centres undefined)	103.7
c1ccc(Cc2nnc3n2CCCCC3)cc1	102.5

Next part.
Structure	VACV E9 pol inh
Cc1cccc(-n2c(CC#N)n[nH]c2=S)c1	89.6
O=C(O)c1cccc(NC(=O)c2cc3ccccc3o2)c1	102.5
COC(=O)C1=C(C)NC2=C(C(=O)CCC2)C1c1ccccc1 (centres undefined)	100.9
COc1cc(C(=O)NCCC(=O)NC2CCC(C)CC2)cc(OC)c1OC (centres undefined)	94.9
CC(C)(C)NS(=O)(=O)c1ccc2nc(-c3ccccc3)[nH]c2c1	102.6
COc1ccccc1N1CCN(C(=O)CN(c2ccccc2OC)S(C)(=O)=O)CC1	100.2
O=C(NCc1ccc(Cl)cc1)c1ccc(CSc2nc3ccncc3[nH]2)cc1	100.8
CC(C)c1ccc(NC(=O)COc2ccccn2)cc1	97.8

Additional records follow.
Structure	VACV E9 pol inh
Cc1ccc(C)n1-c1ncc(Br)cn1	114.6
CCCC(C)C(=O)Nc1ccc(NC(C)=O)cc1 (centres undefined)	103.6
CC(=O)Oc1ccc(OC(C)=O)c2cc3c(OC(C)=O)ccc(OC(C)=O)c3cc12	101.1
O=C(Nc1csc(-c2cccs2)n1)Nc1ccc(F)cc1F	101.2
O=C(CSc1nc2ccccc2c(=O)[nH]1)NCc1ccco1	99.6
CCN=C1SC(CC(=O)Nc2sc3c(c2C(=O)OCC)CCCC3)C(=O)N1CC (centres undefined)	99.8
CCOC(=O)c1ccc(N=Cc2ccc3c(c2)OCO3)cc1	99.8
CC1=CC(=O)N(CCc2c[nH]c3ccc(OCc4ccccc4)cc23)C1=O	101.2

More compounds:
Structure	VACV E9 pol inh
CCC(CC)NC(=O)Cc1ccc(Cl)cc1	101.7
COC(=O)C1C(c2ccc(OC)cc2)C(C(=O)OC)S(=O)(=O)CS1(=O)=O (centres undefined)	107.0
c1nc(N2CCCCC2)c2[nH]cnc2n1	101.3
N#CC1=C(N)Oc2c(c(-c3ccccc3)nn2-c2ccccc2)C1c1ccc(Cl)cc1 (centres undefined)	100.0
c1ccc(C2=Nc3ccccc3Oc3ccccc32)cc1	100.0

2 entries from above, set out differently.
> c1nc(N2CCCCC2)c2[nH]cnc2n1
- VACV E9 pol inh: 101.3
> c1ccc(C2=Nc3ccccc3Oc3ccccc32)cc1
- VACV E9 pol inh: 100.0

An excerpt (hit frequency here may not be typical).
